# PV pol inh = poliovirus RdRp elongation inhibitors, primary screen, biochemical, fluorescence polarization, total intensity; poliovirus polymerase elongation; hits give low values; % elongation, % (compound at 16.7 µg/mL); 150,000 tested, 0.66% active; in the data active = % elongation below about 90%; also: some results filed as inactive read as strong as hits
# Target sequence (P03300 1749-2209 limits assumed): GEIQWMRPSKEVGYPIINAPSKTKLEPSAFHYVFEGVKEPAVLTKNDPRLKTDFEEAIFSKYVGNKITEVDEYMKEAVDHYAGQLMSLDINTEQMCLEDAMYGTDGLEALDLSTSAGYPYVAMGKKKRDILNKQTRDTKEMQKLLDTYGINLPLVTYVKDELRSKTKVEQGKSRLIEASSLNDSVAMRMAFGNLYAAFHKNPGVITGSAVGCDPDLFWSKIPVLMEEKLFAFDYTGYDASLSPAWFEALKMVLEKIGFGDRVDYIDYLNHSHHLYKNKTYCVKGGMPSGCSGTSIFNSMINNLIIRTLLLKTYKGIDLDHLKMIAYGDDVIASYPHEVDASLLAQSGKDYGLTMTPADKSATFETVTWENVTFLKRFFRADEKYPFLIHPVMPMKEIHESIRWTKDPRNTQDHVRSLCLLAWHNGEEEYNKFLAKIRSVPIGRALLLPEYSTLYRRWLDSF
# PV pol inh intensity = recorded beside PV pol inh, whose call it bears; % elongation; measured here: total intensity read-out; formula for this scale not given here;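 total fluorescence in place of polarization; lower means less elongation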
# Active calls of the source: *. Not all compounds are listed, so the mix of outcomes need not match the whole.
# Start of the data: the first two entries, to show the layout:
SMILES,PV pol inh,PV pol inh intensity
Cc1c(Cl)cccc1-c1ccc(CNc2ccc3[nH]c(=O)[nH]c3c2)o1,109.0,110.0
CCCOc1ccc(C(=O)Nc2cc3c(cc2N2CCCCC2)n(C)c(=O)n3C)cc1,108.0,106.0

# The list itself, repeating the preview:
SMILES,PV pol inh,PV pol inh intensity
Cc1c(Cl)cccc1-c1ccc(CNc2ccc3[nH]c(=O)[nH]c3c2)o1,109.0,110.0
CCCOc1ccc(C(=O)Nc2cc3c(cc2N2CCCCC2)n(C)c(=O)n3C)cc1,108.0,106.0
O=C(Nc1ccc2nc(SCC(=O)N3CCCc4ccccc43)sc2c1)c1ccc(F)cc1,105.0,106.0
COc1ccc(CN2C(=O)N(c3ccc(C)cc3)C(=O)C2CC(=O)Nc2ccccc2)cc1OC (stereo not given),104.0,107.0
CCc1ccc(C(=O)c2cn(CC(=O)Nc3ccc(OC)cc3)c3cc4c(cc3c2=O)OCO4)cc1,103.0,108.0
Cc1ccc(OCc2nc(-c3ccc(C(=O)N4CCN(c5cccc(C(F)(F)F)c5)CC4)cc3)oc2C)cc1,105.0,107.0
Cc1nc(-c2ccc(F)cc2)sc1CCNC(=O)c1ccc(OC(C)C)cc1,102.0,102.0
COc1ccc(-c2csc3nc(-c4ccc(C)cc4)oc(=O)c23)cc1OC,105.0,108.0
COC(=O)c1sc2cccc(F)c2c1S(=O)(=O)NCc1ccc(Cl)cc1,106.0,115.0
CSCCC(NS(=O)(=O)c1ccc2c(c1)oc(=O)n2C)C(=O)NCc1ccccc1 (stereo not given),108.0,110.0
Cc1ccc([N+](=O)[O-])c(Oc2ncnc3c2oc2ccccc23)c1,101.0,107.0
COc1cc(/C=C/c2nc(C#N)c(NC(C)c3ccccc3)o2)cc(OC)c1OC (stereo not given),112.0,112.0
O=S1(=O)c2ccccc2N(Cc2ccccc2Cl)c2ccccc21,111.0,115.0
Cc1ccc(-c2nc3c(cnn3-c3ccccc3)c(=O)n2-c2ccc(Cl)cc2)cc1,105.0,106.0
Cc1cccc(C)c1OC(=O)CSc1nnc(-c2ccc3c(c2)OCO3)o1,108.0,116.0
O=C(Cn1c(=O)n(CC2CCCO2)c(=O)c2ccccc21)Nc1cccc(Cl)c1 (stereo not given),110.0,110.0
O=C(CSc1nc2c(c(=O)[nH]1)CN(Cc1ccc(F)cc1)CC2)Nc1cccc(C(F)(F)F)c1,107.0,111.0
CCCCc1nn2c(=O)cc(COC(=O)c3ccc(NC(=O)C4CCCCC4)cc3)nc2s1,103.0,104.0
CC1CCCN(S(=O)(=O)c2ccc3c(c2)c(=O)nc2ccccn23)C1 (stereo not given),106.0,108.0
Cc1ccc(NC(=O)Cn2c(=O)n(Cc3ccc4c(c3)OCO4)c(=O)c3oc4ccccc4c32)cc1C,101.0,108.0
Cc1ccc(C(=O)Nc2ccc3oc(-c4cc(Br)ccc4Cl)nc3c2)cc1,103.0,111.0
CCCn1c(CNC(=O)c2ccc(F)cc2)nc2ccccc21,107.0,111.0
COc1cccc(CNCCSc2nnnn2C)c1OCc1ccc(Cl)cc1Cl,105.0,105.0
Cc1cccc(-c2nc(CN3CCCC(C(=O)NCc4ccc(Cl)cc4)C3)c(C)o2)c1 (stereo not given),105.0,108.0
COC(=O)C1CCN(S(=O)(=O)c2cc3c4c(c2)CC(=O)N4CCC3)CC1,102.0,108.0
# (next part)
SMILES,PV pol inh,PV pol inh intensity
Cc1ccc2onc(CNC(=O)N3CCN(c4cc(Cl)ccc4C)CC3)c2c1,102.0,108.0
CCCCC(=O)NC1(C(F)(F)F)C(=O)Nc2c1c(=O)[nH]c(=O)n2-c1ccc(F)cc1 (stereo not given),104.0,107.0
CCOC(=O)c1c(S(=O)(=O)N2CCC(C(=O)NCc3ccccc3OC)CC2)c(C)n(C)c1C,111.0,113.0
COc1cccc(NC(=O)c2oc3ccccc3c2NC(=O)c2ccc(F)c(F)c2)c1,105.0,108.0
O=C(Cn1ncc2c(Cl)cccc21)NCc1cccc(Br)c1,112.0,106.0
COc1ccccc1CNC(=O)CCS(=O)(=O)c1ccc2c(c1)CCN2C(C)=O,105.0,112.0
Cc1ccc(Nc2nc3nonc3nc2Nc2cccc(C(F)(F)F)c2)cc1Cl,105.0,113.0
O=C(Cn1c(=O)nc(-c2ccccc2)c2ccccc21)Nc1ccc(Cl)cc1F,106.0,111.0
CCN(CC)CCNC(=O)CSc1nc2nc(C)c(Cc3ccccc3)c(C)n2n1,109.0,109.0
O=C(CSc1ccc(-c2ccccn2)nn1)Nc1ccc(F)cc1F,108.0,104.0
COc1ccccc1CNC(=O)C1CCN(Cc2cc3ccccc3n2Cc2cccc(C)c2)CC1,102.0,107.0
CCOc1ccc(S(=O)(=O)N(CC(=O)Nc2ccc(OC)cc2OC)c2ccccc2)cc1,107.0,106.0
COc1ccc(N2CCN(c3ncnc4c3cnn4-c3ccc(F)cc3)CC2)cc1,111.0,110.0
Cc1ccc(C)c(CSc2ccc3nnc(CCNS(=O)(=O)c4ccccc4)n3n2)c1,109.0,112.0
Cc1ccc(CN(C(=O)COc2ccc(Cl)c(C)c2)c2ccccn2)o1,103.0,107.0
Cc1ccc(-c2c(C(=O)NCc3ccc(F)cc3)oc(=O)c3ccccc23)cc1,113.0,112.0
CCOc1ccc(NC(=O)CSc2oc(-c3ccccc3)nc2S(=O)(=O)c2ccc(Cl)cc2)cc1,103.0,99.0
COc1ccccc1CNC(=O)C1CCN(c2nc3ccc(Cl)cc3[nH]2)CC1,107.0,115.0
Cc1noc(-c2ccc(N(C)Cc3ccccc3)c([N+](=O)[O-])c2)n1,106.0,109.0
CCn1cc(C(=O)NCCc2ccc(C)cc2)c(=O)c2cc(S(=O)(=O)N3CCc4ccccc4C3)ccc21,104.0,108.0
Cc1ccccc1CN1C(=O)c2ccccc2Sc2ccc(C(=O)NCc3cccs3)cc21,108.0,107.0
CCC(=O)N1CCc2cc(CNC(=O)Cc3ccc(F)cc3)ccc21,105.0,102.0
O=C(O)c1ccc(C2Nc3ccccc3-c3nnc(SCc4ccc(Cl)cc4)nc3O2)cc1 (stereo not given),101.0,106.0
Cc1cccc(OCC(=O)N(Cc2ccc(C(C)(C)C)cc2)Cc2ccco2)c1,108.0,105.0
O=C(c1cccc(Cl)c1)n1nc(-c2ccco2)nc1NCc1cccs1,106.0,110.0
# (list continues)
SMILES,PV pol inh,PV pol inh intensity
COc1ccc(OCC(=O)N2CCN(CCc3ccccn3)CC2)cc1,106.0,104.0
COc1ccc(OC)c(CCNC(=O)CCCn2c(=O)c3cccn3c3ccc(F)cc32)c1,114.0,108.0
O=C(Nc1ccc(Br)cc1F)c1cc2nc(-c3ccco3)cc(C(F)(F)Cl)n2n1,108.0,110.0
COc1cccc(CNC(=O)CN2CCCN(Cc3ccccc3)S2(=O)=O)c1,109.0,113.0
Cc1ccc2oc(-c3ccc(C)c(NC(=O)/C=C/c4ccc(Cl)cc4)c3)nc2c1,102.0,100.0
O=C(NCc1cccc(Cl)c1)c1cnc(N2CCCCC2)c2ccccc12,111.0,109.0
Cc1ccc(OCC(=O)Nc2nnc(S(=O)(=O)N3CCc4ccccc43)s2)cc1,114.0,120.0
O=C(NCc1ccc2c(c1)CCN2C(=O)c1ccc(F)cc1)c1ccc(Br)o1,108.0,113.0
CCN(CC)CCCNC(=O)C1CCN(S(C)(=O)=O)CC1,112.0,110.0
O=C(NC1CCCCCC1)C1c2ccccc2C(=O)N1Cc1ccc(F)cc1 (stereo not given),109.0,103.0
CCOC(=O)Cc1ccc(NC(=O)N(C(C)C)C2CCN(C(C)=O)CC2)cc1,109.0,106.0
Cc1nc(SC(C)C(=O)Nc2ccccc2C)cc(-c2ccccc2)n1 (stereo not given),109.0,111.0
Cc1ccc(N2C(=O)NC(NS(=O)(=O)c3ccc(Cl)cc3)(C(F)(F)F)C2=O)cc1C (stereo not given),98.0,101.0
Cc1ccc(C(=O)c2cn(Cc3ccccc3)c3nc(C)ccc3c2=O)cc1,108.0,111.0
COc1ccccc1NC(c1ccc(Cl)cc1)c1nnc(-c2cccc(F)c2)o1 (stereo not given),108.0,111.0
COc1ccc(CCNC(=O)c2cnc3sc(N4CCCCC4)nn3c2=O)cc1OC,106.0,108.0
Cc1ccc(CNc2ncnc3c2nnn3C)cc1,110.0,114.0
Cc1ccc2nc(NCc3ccccc3Cl)c3nnnn3c2c1,107.0,113.0
O=C(Cn1ccn(-c2cccc(Cl)c2)c(=O)c1=O)c1ccc(F)cc1,110.0,115.0
Cc1cccc(NC(=O)C2CCCN(S(=O)(=O)c3cccc4nonc34)C2)c1 (stereo not given),113.0,117.0
COc1ccc(CNC(=O)c2ccc3c(c2)N(Cc2ccccc2)CCS3)cc1,104.0,109.0
Cc1ccccc1NC(=O)CCc1c(C)nn(-c2ccc(N3CCCCC3)nn2)c1C,104.0,106.0
Cc1cccc(CCNC(=O)c2sc3nc4n(c(=O)c3c2C)CCCC4)c1,110.0,116.0
CCc1ccc(C2=CC(c3cccc(OC)c3OC)n3c(nc4ccccc43)N2)cc1 (stereo not given),105.0,125.0
COc1ccc(NC(=O)CCCS(=O)(=O)c2nc(-c3ccccc3OC)cc(C(F)(F)F)n2)c(OC)c1,104.0,103.0

# Structures above with a CF3 group (6):
SMILES,PV pol inh,PV pol inh intensity
Cc1ccc(OCc2nc(-c3ccc(C(=O)N4CCN(c5cccc(C(F)(F)F)c5)CC4)cc3)oc2C)cc1,105.0,107.0
O=C(CSc1nc2c(c(=O)[nH]1)CN(Cc1ccc(F)cc1)CC2)Nc1cccc(C(F)(F)F)c1,107.0,111.0
CCCCC(=O)NC1(C(F)(F)F)C(=O)Nc2c1c(=O)[nH]c(=O)n2-c1ccc(F)cc1 (stereo not given),104.0,107.0
Cc1ccc(Nc2nc3nonc3nc2Nc2cccc(C(F)(F)F)c2)cc1Cl,105.0,113.0
Cc1ccc(N2C(=O)NC(NS(=O)(=O)c3ccc(Cl)cc3)(C(F)(F)F)C2=O)cc1C (stereo not given),98.0,101.0
COc1ccc(NC(=O)CCCS(=O)(=O)c2nc(-c3ccccc3OC)cc(C(F)(F)F)n2)c(OC)c1,104.0,103.0

# Remaining list, next part:
SMILES,PV pol inh,PV pol inh intensity
CCOc1ccc(NC(=O)CSC2=Nc3ccccc3C3=NC(CC(=O)NCc4cccs4)C(=O)N23)cc1 (stereo not given),107.0,113.0
COc1ccc(-c2[nH]c(-c3ccccc3)nc2SCC(=O)NC2CCCC2)cc1,113.0,114.0
COc1ccccc1CN1C(=O)CN(C2CCCCCC2)C(=O)C1c1ccc(F)cc1 (stereo not given),109.0,106.0
COC(=O)c1scc(-c2ccc(C)cc2)c1S(=O)(=O)N1CCN(c2cccc(Cl)c2)CC1,102.0,109.0
CCOc1ccccc1NC(=O)Cn1c(=O)n(-c2ccccc2)c(=O)c2c1c1cc(C)ccc1n2C,113.0,111.0
COc1cccc(CNC(=O)CCc2nc(-c3ccc(C)cc3)no2)c1,105.0,94.0
Cc1cc(C)c2sc(N(Cc3cccnc3)C(=O)CCS(=O)(=O)c3ccccc3)nc2c1,106.0,109.0
COc1ccc(C(=O)CN2CCN(S(=O)(=O)c3ccc(C(C)C)cc3)CC2)cc1,109.0,113.0
Cn1cc(-c2cc3n(n2)CCC(=O)N3CCCC(=O)NCc2ccc(Cl)cc2)c2ccccc21,107.0,103.0
Cc1ccc2c(Sc3ccccc3)c(C(=O)NCc3ccccc3F)[nH]c2c1,112.0,116.0
CCCn1c(=O)n(-c2ccccc2Cl)c(=O)c2sc3ccccc3c21,104.0,107.0
CCc1cccc(C)c1Nc1c(-c2cccc(O)c2)nc2sccn12,105.0,108.0
Cc1ccc(S(=O)(=O)c2cnc(SC(C)C(=O)Nc3ccccc3)[nH]c2=O)cc1 (stereo not given),104.0,110.0
COc1ccc(-c2cc(C(=O)Nc3sc4c(c3C(N)=O)CCC(C)C4)no2)cc1 (stereo not given),103.0,98.0
Cc1cc(Cl)ccc1NC(=O)CCn1nc(C)c2c(C)n(-c3ccccc3)nc2c1=O,100.0,107.0
Cc1ccccc1C(=O)Nc1cc2c(cc1N1CCCCC1)n(C)c(=O)n2C,104.0,107.0
CCC(=O)N1CCc2cc(Br)cc(S(=O)(=O)CCC(=O)Nc3ccc(Cl)cc3)c21,109.0,111.0
COc1cccc(C(=O)Nc2nc(-c3ccc(Br)cc3)ns2)c1,100.0,102.0
O=C(Nc1ccc(C(F)(F)F)cc1)C1CCCN(S(=O)(=O)c2cccc3cccnc23)C1 (stereo not given),104.0,107.0
CCn1ccc2cc(S(=O)(=O)N3CCC(C(=O)NCCc4ccccc4)CC3)ccc21,105.0,110.0
CCN(CC)CCNC(=O)c1sc2ncccc2c1-n1cccc1,103.0,106.0
O=[N+]([O-])c1cc(-c2nc(-c3ccccc3)no2)ccc1NC1CCCCC1,113.0,105.0
COc1cccc(C2CC(=O)Nc3c2c(=O)[nH]c2ncnn32)c1OC (stereo not given),102.0,106.0
N#Cc1cccc(NC(=O)Cn2nc(Cc3ccncc3)c3ccccc3c2=O)c1,102.0,107.0
CCOc1ccc(NC(=O)c2cnn(-c3ccc(C)c(Cl)c3)c2C2CCNCC2)cc1,96.0,96.0
Cc1ccc(NC(=O)C2CCCN(c3nnc(C)c4c(C)n(-c5ccccc5)nc34)C2)c(Cl)c1 (stereo not given),110.0,115.0
CCOC(=O)c1[nH]c2ccccc2c1NC(=O)c1ccc(OC(C)C)cc1,108.0,111.0
Cc1nc2ccc(S(=O)(=O)N(CC(=O)Nc3cccc(F)c3)Cc3ccccc3)cc2s1,99.0,99.0
O=C(COc1ccc(F)cc1)Nc1cccc(OCc2cc(=O)n3ccccc3n2)c1,103.0,108.0

# Full records from above.
# Entry for CCOc1ccc(NC(=O)CSC2=Nc3ccccc3C3=NC(CC(=O)NCc4cccs4)C(=O)N23)cc1 (stereo not given) → PV pol inh: 107.0; PV pol inh intensity: 113.0
# Entry for Cc1cc(C)c2sc(N(Cc3cccnc3)C(=O)CCS(=O)(=O)c3ccccc3)nc2c1 → PV pol inh: 106.0; PV pol inh intensity: 109.0

# Individual results from the list.
# COc1cccc(C2CC(=O)Nc3c2c(=O)[nH]c2ncnn32)c1OC (stereo not given) – PV pol inh intensity: 106.0
# CCCn1c(=O)n(-c2ccccc2Cl)c(=O)c2sc3ccccc3c21 – PV pol inh: 104.0
# Cc1ccccc1C(=O)Nc1cc2c(cc1N1CCCCC1)n(C)c(=O)n2C – PV pol inh: 104.0
